# Beta cell apopt = beta cell apoptosis inhibition; protection from apoptosis, % (no concentration beside the values); 300,000 tested, 0.8% active; AID 435005; INS-1E cytokine-induced death, ATP luminescence, 48 h; percent of positive-control rescue, neutral wells zero;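 active means all replicates at 75% or more, or half of them and the mean; inconclusive means half reach 75% but not the mean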;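 further: 0% = cytokine-treated negative control wells and 100% = positive control rescue; higher means more ATP so stronger rescue from cytokine killing; wells of about 40 µL received 100 nL stock; the first replicate is given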
# ALR inh = human ALR oxidase inhibition via reduced H2O2; AID 485317; 290,000 tested, 3.8% active; inhibition, % (concentration not given with the values); purified ALR, DTT oxidation, H2O2 HRP-luminol luminescence;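 active means mean and each replicate at 75% or more; inconclusive means only one of the two met; inactive means neither met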;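 further: stock transfer was 7.5 nL into about 7.5 µL; 0% = neutral wells and 100% = wells with inactivated enzyme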
# Calb FLC = affects C. albicans growth with fluconazole. C. albicans CaCi-2 (fluconazole-resistant clinical isolate) + fluconazole, Alamar Blue growth, 48 h. growth inhibition, % (concentration not given with the values). 300,000 tested, 0.57% active;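 active means most replicates above 75%; inconclusive means exactly half above 75%; inactive means most below 75%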;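 further: all wells also contain fluconazole at 8 µg/ml as a sub-toxic cotreatment; 0% = median of DMSO wells and 100% = median of geldanamycin control wells; wells of about 8 µL received 7.5 nL stock; the first replicate is given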
# B2AR ag = agonists of human beta-2 adrenergic receptor inducing internalization | P07550 | Am2.2-beta2AR cells, FAP receptor internalization, flow cytometry; reference of the scale not given here | response, % (test concentration not listed) | 340,000 tested, 0.43% active | AID 504454;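 active means response above a set limit, near 3 SD of response in nonfluorescent compounds, cut at about 42% in these data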;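 further: stock transfer was 100 nL into about 11 µL; a reference agonist was the positive control; negative values mostly stem from fluorescent compounds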
# T cruzi inh = T. cruzi replication inhibition | inhibition, % (no concentration beside the values) | 300,000 tested, 1.4% active | T. cruzi beta-gal in NIH3T3, luminescence, 90 h;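 active means mean inhibition across valid replicates above about 55%, limit read from the data; inconclusive means mean below that limit but half or more replicates reach it; inactive means mean below it, under half of replicates reach it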;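 further: signal also drops with host cell toxicity which is not excluded here; 0% = plate median of DMSO wells and 100% = zero luminescence signal; higher percent means less beta-gal luminescence so fewer parasites; stock transfer was 50 nL into about 50 µL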
# Bfl-1 A1 inh = inhibitors of the anti-apoptotic protein A1, read as caspase activation. MEF A1-2A-BIM cells, Caspase-Glo 3/7 luminescence, 3 h; percent of clofoctol response, vehicle zero. caspase activation, % (test concentration not listed). 330,000 tested, 0.066% active;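 active means over half of replicate activation scores above 10%, or exactly half above 10 with the replicate mean above 10; inconclusive means replicate mean below 10 yet half the replicates above 10; inactive means over half of replicates below 10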;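 further: wells of about 30 µL received 50 nL stock; many hits fall short of the cut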
# LANA-H2A inh = blocks KSHV LANA binding to histone H2A/H2B; cell-free LANA-H2A/H2B peptide, fluorescence polarization; 320,000 tested, 0.6% active; Q9QR71; inhibition, % (concentration not given with the values); in the data active means inhibition mostly above about 10%, no sharp cut-off; inactive means mostly below about 6.7%;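 further: stock transfer was 7.5 nL into about 10 µL; 0% = median of vehicle wells and 100% = median of positive control wells; one replicate is shown; the record names a cut of 25% in any replicate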
# Target sequence (Q9QR71 whole entry, looked up): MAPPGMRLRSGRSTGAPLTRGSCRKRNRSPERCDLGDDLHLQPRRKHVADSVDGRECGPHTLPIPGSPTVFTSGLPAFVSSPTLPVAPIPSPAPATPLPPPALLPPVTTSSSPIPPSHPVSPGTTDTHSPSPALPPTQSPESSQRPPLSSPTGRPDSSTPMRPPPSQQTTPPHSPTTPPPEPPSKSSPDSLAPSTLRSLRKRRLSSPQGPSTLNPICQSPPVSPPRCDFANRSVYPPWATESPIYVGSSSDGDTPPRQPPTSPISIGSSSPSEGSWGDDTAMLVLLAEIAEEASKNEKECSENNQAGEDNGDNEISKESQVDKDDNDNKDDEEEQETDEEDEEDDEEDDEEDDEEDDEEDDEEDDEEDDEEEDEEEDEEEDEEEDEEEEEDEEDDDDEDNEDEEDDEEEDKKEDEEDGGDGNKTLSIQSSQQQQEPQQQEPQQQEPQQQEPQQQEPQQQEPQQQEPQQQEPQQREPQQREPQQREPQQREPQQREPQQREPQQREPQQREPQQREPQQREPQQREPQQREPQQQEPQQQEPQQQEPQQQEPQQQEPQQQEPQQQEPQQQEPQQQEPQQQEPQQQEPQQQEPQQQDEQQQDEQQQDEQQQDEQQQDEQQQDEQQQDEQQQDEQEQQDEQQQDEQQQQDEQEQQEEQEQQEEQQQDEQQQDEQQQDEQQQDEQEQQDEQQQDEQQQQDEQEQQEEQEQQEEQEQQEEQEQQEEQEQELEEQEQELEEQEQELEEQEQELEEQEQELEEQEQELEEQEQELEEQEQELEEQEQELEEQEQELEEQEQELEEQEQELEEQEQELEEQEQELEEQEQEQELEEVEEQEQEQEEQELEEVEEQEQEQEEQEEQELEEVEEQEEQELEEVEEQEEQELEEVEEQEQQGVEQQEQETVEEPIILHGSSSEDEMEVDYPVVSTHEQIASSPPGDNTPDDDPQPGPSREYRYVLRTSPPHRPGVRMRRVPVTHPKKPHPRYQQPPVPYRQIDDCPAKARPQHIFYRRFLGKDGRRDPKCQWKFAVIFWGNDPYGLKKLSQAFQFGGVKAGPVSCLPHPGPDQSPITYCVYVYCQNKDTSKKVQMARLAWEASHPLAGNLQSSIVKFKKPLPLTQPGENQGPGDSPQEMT
# Ecoli rRNA inh = inhibitors of bacterial rRNA selective over humanized ribosomes | E. coli WT GFP vs humanized-ribosome RFP mutants, fluorescence, 24 h; stronger effect = lower value; DMSO median 0, no signal -100 | GFP signal change (wild-type ribosome), % (concentration not given with the values) | 350,000 tested, 1.6% active;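 active means significant combined selectivity score with lowered wild-type GFP, culture density cut under 30%, mutant RFP and density less affected; inactive means any of these conditions unmet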; further: one replicate is shown; some compounds called inactive have numbers as strong as hits
# Ecoli rRNA inh OD600 = second read-out of Ecoli rRNA inh, no call of its own (marks repeat the call); OD600 change, %; measured here: OD600 growth;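 optical density of the mix in the first replicate; 0 = DMSO median and -100 = no signal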
# Ecoli rRNA inh RFP = also measured in Ecoli rRNA inh; calls as there; RFP signal change, %; measured here: RFP humanized mutant strains;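 first replicate; 0 = DMSO median and -100 = no signal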
# Active calls of the source: *; i = inactive; ? = inconclusive; . = no result given.
# Start of the data: the first 4 records, to show the layout:
SMILES,Beta cell apopt,ALR inh,Calb FLC,B2AR ag,T cruzi inh,Bfl-1 A1 inh,LANA-H2A inh,Ecoli rRNA inh,Ecoli rRNA inh OD600,Ecoli rRNA inh RFP
CC(C)NC(=O)c1ccccc1NC(=O)Cc1ccc(Br)cc1,.,3,?,5,-8,0.1,4.4,9,16,7.8
O=c1c2ccccc2nc2n1C(CSc1ccc(F)cc1)CS2 (configuration not stated),-10,-3,-1,-1,-8,-0.3,3.4,13,10,-0.7
CCOC(=O)N1CCN(S(=O)(=O)c2ccc(F)c(C(=O)Nc3cc(C)cc(C)c3)c2)CC1,-7,-6,-1,8,22,0.9,-5.0,.,.,.
O=C1CSC(=S)N1c1cccc(O)c1,-11,-3,-10,4,-13,0.3,-1.1,4,2,26

# Main list, repeating the preview:
SMILES,Beta cell apopt,ALR inh,Calb FLC,B2AR ag,T cruzi inh,Bfl-1 A1 inh,LANA-H2A inh,Ecoli rRNA inh,Ecoli rRNA inh OD600,Ecoli rRNA inh RFP
CC(C)NC(=O)c1ccccc1NC(=O)Cc1ccc(Br)cc1,.,3,?,5,-8,0.1,4.4,9,16,7.8
O=c1c2ccccc2nc2n1C(CSc1ccc(F)cc1)CS2 (configuration not stated),-10,-3,-1,-1,-8,-0.3,3.4,13,10,-0.7
CCOC(=O)N1CCN(S(=O)(=O)c2ccc(F)c(C(=O)Nc3cc(C)cc(C)c3)c2)CC1,-7,-6,-1,8,22,0.9,-5.0,.,.,.
O=C1CSC(=S)N1c1cccc(O)c1,-11,-3,-10,4,-13,0.3,-1.1,4,2,26
O=C(CCNC(=O)c1ccco1)Nc1ccc(Cl)cc1,.,-5,1,-5,-9,0.2,-2.5,-19,-30,16
O=C(COC(=O)c1n[nH]c2ccccc12)NC(=O)NC1CCCCC1,-6,1,-4,1,4,-1.0,1.0,1,1,-3.0
Clc1cc(Cl)cc(Nc2ncn[nH]2)c1,2,.,45,-4,51,0.9,4.9,-1,5,-6.8
O=C1CC(N2CCC(c3nc4ccccc4o3)CC2)C(=O)N1c1ccc(Cl)c(C(F)(F)F)c1 (configuration not stated),.,-2,34,-1,-12,0.6,-0.1,.,.,.
C/C(=N\N1CCN(c2ccccc2)CC1)c1ccccc1O,1,2,-6,-6,-5,-0.1,-0.9,16,12,0.9
CC(=O)Nc1ccc(OCCOc2ccc(/C=C3\C(=N)N4N=C(C(C)C)SC4=NC3=O)cc2)cc1,2,54,-5,3,-8,-0.2,4.2,11,8,2.0

# Looked up above:
# Bfl-1 A1 inh, CC(=O)Nc1ccc(OCCOc2ccc(/C=C3\C(=N)N4N=C(C(C)C)SC4=NC3=O)cc2)cc1 stands at -0.2
# Ecoli rRNA inh RFP, O=C(CCNC(=O)c1ccco1)Nc1ccc(Cl)cc1 stands at 16

# Next entries follow.
SMILES,Beta cell apopt,ALR inh,Calb FLC,B2AR ag,T cruzi inh,Bfl-1 A1 inh,LANA-H2A inh,Ecoli rRNA inh,Ecoli rRNA inh OD600,Ecoli rRNA inh RFP
COc1ccc(OCC(=O)Nc2nccs2)cc1,-5,.,1,-2,-5,-7.3,5.1,5,7,-0.2
Cc1ccccc1-c1nc(Cc2ccccc2)no1,-1,-5,-1,-7,0,-3.1,0.6,.,.,.
COc1cc(/C=N/N(C)C)ccc1OC(=O)c1ccco1,0,47,-7,1,-2,0.6,0.6,7,1,1.2
N#Cc1ccc(OCC(=O)N2CCN(S(=O)(=O)c3ccc(Cl)s3)CC2)cc1,8,-1,.,1,.,-1.1,3.9,-20*,-10*,5.0*
CC(OC(=O)CCN=C1NS(=O)(=O)c2ccccc21)C(=O)c1ccccc1 (configuration not stated),7,.,2,-4,-12,0.4,0.8,5,8,-1.8
CCC(=O)Nc1cccc(NC(=O)c2ccc(C)c([N+](=O)[O-])c2)c1,-1,3,2,3,-5,-1.8,1.6,.,.,.
CCNC(=S)N(Cc1cc2cc(C)c(C)cc2[nH]c1=O)C1CCCC1,1,0,1,-1,12,-0.8,-1.8,-19,-20,6.8
O=C(NN=c1c(=O)c2ccccc2c1=O)c1ccccc1,4,29,1,-6,-41,0.5,0.2,9,-2,-3.0
NS(=O)(=O)c1ccc(Nc2ncccc2[N+](=O)[O-])cc1,-2,-4,-7,12,7,0.1,-1.1,-1,-3,23
N#Cc1ccc(C(=O)NC2=NCCS2)cc1,.,.,-2,4,-12,-0.2,-3.0,1,11,-1.7

# Part of the list above in a different format:
molecule: Cc1ccccc1-c1nc(Cc2ccccc2)no1
  Beta cell apopt: -1	ALR inh: -5	Calb FLC: -1	B2AR ag: -7	T cruzi inh: 0	Bfl-1 A1 inh: -3.1	LANA-H2A inh: 0.6	Ecoli rRNA inh: .	Ecoli rRNA inh OD600: .	Ecoli rRNA inh RFP: .
molecule: COc1cc(/C=N/N(C)C)ccc1OC(=O)c1ccco1
  Beta cell apopt: 0	ALR inh: 47	Calb FLC: -7	B2AR ag: 1	T cruzi inh: -2	Bfl-1 A1 inh: 0.6	LANA-H2A inh: 0.6	Ecoli rRNA inh: 7	Ecoli rRNA inh OD600: 1	Ecoli rRNA inh RFP: 1.2

# The list goes on:
SMILES,Beta cell apopt,ALR inh,Calb FLC,B2AR ag,T cruzi inh,Bfl-1 A1 inh,LANA-H2A inh,Ecoli rRNA inh,Ecoli rRNA inh OD600,Ecoli rRNA inh RFP
CN(C)S(=O)(=O)c1ccc(Cl)c(NC(=O)CN2CCC(Cc3ccccc3)CC2)c1,4,-14,-7,1,35,0.4,-2.9,-15,-11,-0.8
CC(OC(=O)COc1ccc(Nc2ccccc2)cc1)C(=O)N(C)c1ccccc1 (configuration not stated),-1,71,-1,-1,-7,0.0,0.3,-14,-18,-2.3
CCc1ccc(NC(=O)C(=O)c2cn(CC(=O)N3CCCCC3)c3ccccc23)cc1,-2,-1,8,10,9,-0.6,-0.6,.,.,.
Cc1cc2c(c(=O)n1C1CC1)C(c1cccc(Cl)c1)C(C#N)=C(N)O2 (configuration not stated),2,10,-1,1,-3,0.3,-0.4,.,.,.
COc1ccc(S(=O)(=O)N2CCOCC2)cc1NC(=O)COc1ccccc1OC,3,16,6,3,2,-0.3,5.5,1,1,-0.5
C#CCNC(=O)C1=C[C@H](c2ccc(C#C)cc2)C[C@H](OCc2ccc(CO)cc2)O1,.,1,3,0,2,1.8,2.9,.,.,.
O=C(COc1ccccc1[N+](=O)[O-])c1ccccc1,-14,3,4,12,-49,1.0,-2.6,2,-3,0.5
Cc1cc(=O)n2nc(N3CCCC3C(=O)Nc3cccc(Cl)c3C)sc2n1 (configuration not stated),1,2,-8,-10,-10,0.4,3.2,2,3,4.0
CC(=O)c1cnc2n(c1=O)CCS2,-5,-3,-4,1,-17,1.6,-0.4,19,17,-0.5
CCOC(=O)c1cc2cc(CC(=O)c3ccc(OCC)cc3O)ccc2o1,-8,.,20,-9,-13,0.2,-1.0,.,.,.

SMILES,Beta cell apopt,ALR inh,Calb FLC,B2AR ag,T cruzi inh,Bfl-1 A1 inh,LANA-H2A inh,Ecoli rRNA inh,Ecoli rRNA inh OD600,Ecoli rRNA inh RFP
CN(C)S(=O)(=O)c1ccc(Cl)c(NC(=O)COC(=O)[C@@H]2CCCN2C(=O)c2cccs2)c1,-7,5,1,1,1,-0.6,-2.3,-18,-14,0.8
O=C(CCl)N1N=C(c2ccco2)CC1c1cccs1 (configuration not stated),9,8,0,4,-10,0.4,i,.,.,.
Cc1ccc2nc(SCC(=O)NCc3cccs3)[nH]c2c1,-1,-2,-2,-16,-2,-0.2,4.1,-24,-9,-0.5
COc1ccc(-c2cc(=O)oc3cc(OCC(=O)Nc4ccccn4)ccc23)cc1,7,-6,-8,-1,-9,-0.7,0.2,10,5,-0.2
CCOC(=O)C1CCN(C(=O)CSc2nccc(C)n2)CC1,.,-39,4,1,-9,0.9,5.3,15,22,1.9
Cc1ccc(NC(=O)c2sc(Cl)nc2C)c(C)c1,-2,0,-1,7,-2,0.4,2.9,.,.,.
CC(=O)Nc1nonc1-c1nc2ccccc2n1Cc1ccccn1,-3,-3,-4,-3,5,-0.2,-1.4,.,.,.
Cn1c(CNC(=O)c2ccc(Cl)cc2)nnc1SCC(=O)NC1=NCCS1,-8,-1,3,0,12,0.2,-4.5,7,8,0.9
O/N=C1/C2C3C(Br)C4C5CC(C1C53)C24 (configuration not stated),-6,5,10,2,-8,0.3,-4.1,.,.,.
CN1C(=O)/C(=C/c2ccc(OCc3ccc(F)cc3)cc2)NC1=S,.,.,0,7,-3,-0.6,1.0,-3,14,2.0

SMILES,Beta cell apopt,ALR inh,Calb FLC,B2AR ag,T cruzi inh,Bfl-1 A1 inh,LANA-H2A inh,Ecoli rRNA inh,Ecoli rRNA inh OD600,Ecoli rRNA inh RFP
O=C(CSc1nccn1-c1ccc(Cl)cc1)Nc1ccc2c(c1)OCO2,0,27,-2,-13,.,0.0,-1.1,.,.,.
O=C(NCCCO)c1nnc(Cc2c(F)cccc2Cl)o1,-2,-19,-1,1,-3,0.3,-0.2,.,.,.
COC(=O)CSc1nnc(-c2cccnc2)n1-c1cc(OC)cc(OC)c1,-2,-2,3,32,-4,0.0,4.6,.,.,.
O=C(CN1C(=O)NC2(CCCC2)C1=O)OCCOc1ccc(F)cc1,0,-1,2,5,5,0.0,-0.1,5,5,0.4
CC(=O)NS(=O)(=O)c1ccc(NC(=O)c2cc(-c3ccc(C)cc3)nc3ccccc23)cc1,-4,98*,1,-3,-21,0.9,6.3,-28,-44,-8.1
CCNc1c(NS(=O)(=O)c2ccc(F)c(Cl)c2)c(=O)oc2ccccc12,-17,.,-1,-9,0,-0.3,0.2,4,1,-2.1
CCN1CCN(C(=S)NC(CC(=O)c2ccccc2)c2ccccc2)CC1 (configuration not stated),-2,-6,3,1,5,0.9,0.1,0,-4,-4.2
CC(Sc1ccc(Cl)cc1)C(=O)Nc1ccc2c(c1)OCO2 (configuration not stated),2,-6,-70,3,-5,-0.9,-3.2,.,.,.
NC(=O)c1ccc(NC(=O)C2CC2)cc1,-3,-10,-9,-2,-13,-0.3,-2.0,12,15,0.9
CC1c2cc3c(cc2CCN1C(=O)c1cccc(F)c1)OCCCO3 (configuration not stated),-7,1,1,-7,12,-1.1,-0.6,-3,-14,0.8

SMILES,Beta cell apopt,ALR inh,Calb FLC,B2AR ag,T cruzi inh,Bfl-1 A1 inh,LANA-H2A inh,Ecoli rRNA inh,Ecoli rRNA inh OD600,Ecoli rRNA inh RFP
CCOC(=O)C1=C(C)N=c2s/c(=C\c3ccc(OC(C)=O)cc3)c(=O)n2C1/C=C/c1ccccc1 (configuration not stated),-2,39,3,-157,-6,0.6,1.5,9,20,4.8
CC(=O)c1oc2ccccc2c1N,-4,-2,-6,2,-10,0.8,-4.9,.,.,.
COc1ccc(CNC(=O)CC(C)c2ccccc2)cc1 (configuration not stated),-3,-20,4,0,-12,0.4,3.8,2,4,-1.5
Cc1cc(C(=O)NCc2ccc3c(c2)OCO3)ccc1[N+](=O)[O-],0,-10,-46,-6,5,0.2,0.8,11,8,-0.6

# Not all compounds are listed, so the mix of outcomes need not match the whole.
